gsp agonist = agonists of gsp mutant (McCune-Albright syndrome); gsp mutant cells, cAMP HTRF, 30 min; control for the full effect not named in the record; Potency, µM (titrated, usually from 76.9 µM), without a hit: top-dose activation (cAMP increase), most hits filed as activators; 0.13% of 340,000 active; active = well fitted activation curve with a large enough effect; inconclusive = small, poorly fitted or top-dose-only effect, or another doubt; inactive = no such curve, though single readings can be large or run the other way; cell line not stated here;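 note: phosphodiesterase inhibitor Ro 20-1724 added with compounds to block cAMP breakdown; potency is the fitted concentration of half-maximal effect; nearly all actives have a fitted effect of over 60% in size; about a fifth of the inactives were tested at one dose only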
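Cells stably selected in G418 were plated at 2000/well, grown 16-24 hr, then given compounds in DMSO with the PDE inhibitor […] (300 uM solution added) for 30 min at 37C; cAMP was read by HTRF.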
ClpP mod = qHTS Assay for Activators of ClpP | purified B. subtilis ClpP, FRET peptide cleavage, 20 min | Potency, µM (highest dose often 57.5 µM), without a hit: at the highest dose activity change, negative = active | 1.9% of 340,000 active | AID 651965, 2013; active = well fitted falling curve with a large enough effect; inconclusive = small, poorly fitted or top-dose-only effect; inactive = no such curve, though single readings can be large or run the other way; note: potency is the fitted concentration of half-maximal effect; the source files actives as falling curves though it sought activators and does not explain the sign; nearly all actives have a fitted effect of over 65% in size; many hits overshoot -100%
Target sequence (P80244 whole entry, looked up): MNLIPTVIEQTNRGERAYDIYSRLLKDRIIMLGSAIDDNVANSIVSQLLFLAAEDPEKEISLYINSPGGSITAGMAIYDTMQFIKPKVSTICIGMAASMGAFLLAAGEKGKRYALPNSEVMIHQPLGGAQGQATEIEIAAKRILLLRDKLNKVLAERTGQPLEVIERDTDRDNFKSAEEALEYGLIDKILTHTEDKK
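Purified B. subtilis ClpP, 10 microg/mL final in Tris/HCl pH8 with KCl, BSA, glycerol and Tween-20, cleaved an Abz/nitrotyrosine-quenched decapeptide. Fluorescence (ex 320, em 430) was read at 0 and 20 min at room temperature. Delta was normalized to 5.8 microM ADEP and DMSO/no-enzyme controls.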
gsp antag = gsp mutant antagonism. 0.4% of 340,000 active. Potency, µM (titrated, usually from 76.9 µM), without a hit: at the highest dose activity change, negative = inhibition, hits mostly inhibitors. gsp-mutant cells, cAMP HTRF, 30 min; control for the full effect not named in the record; active = falling curve of any shape with a large fitted effect; inconclusive = falling curve, mostly with a smaller effect; inactive = flat or rising curve; cell line not stated here;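 note: intracellular cAMP measured with PDE inhibitor Ro 20-1724 present during compound exposure; potency is the fitted concentration of half-maximal effect; % is set by controls: 0 for no effect and ±100 for the full control effect; nearly all actives have a fitted effect of over 65% in size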
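HTRF cAMP measurement after 30 min RT detection following 30 min, 37C compound treatment alongside […] (added as 300 uM solution) in G418-selected cells seeded at 2000/well and grown 16–24 h.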
TRPML1 ag = human mucolipin-1 channel agonism; Q9GZU1; TRPML1-expressing cells, Ca2+ dye fluorescence, FDSS; host cell line not named in the record; reference of the full effect not given here; activation, % (test concentration not listed); 0.12% of 410,000 active; AID 624414; in the data active = activation above about 50%; inconclusive = about 30% to 50%; inactive = below about 30%; note: 0% is about no effect; the text of the record puts the active cut at 80%
Target sequence (Q9GZU1 whole entry, looked up): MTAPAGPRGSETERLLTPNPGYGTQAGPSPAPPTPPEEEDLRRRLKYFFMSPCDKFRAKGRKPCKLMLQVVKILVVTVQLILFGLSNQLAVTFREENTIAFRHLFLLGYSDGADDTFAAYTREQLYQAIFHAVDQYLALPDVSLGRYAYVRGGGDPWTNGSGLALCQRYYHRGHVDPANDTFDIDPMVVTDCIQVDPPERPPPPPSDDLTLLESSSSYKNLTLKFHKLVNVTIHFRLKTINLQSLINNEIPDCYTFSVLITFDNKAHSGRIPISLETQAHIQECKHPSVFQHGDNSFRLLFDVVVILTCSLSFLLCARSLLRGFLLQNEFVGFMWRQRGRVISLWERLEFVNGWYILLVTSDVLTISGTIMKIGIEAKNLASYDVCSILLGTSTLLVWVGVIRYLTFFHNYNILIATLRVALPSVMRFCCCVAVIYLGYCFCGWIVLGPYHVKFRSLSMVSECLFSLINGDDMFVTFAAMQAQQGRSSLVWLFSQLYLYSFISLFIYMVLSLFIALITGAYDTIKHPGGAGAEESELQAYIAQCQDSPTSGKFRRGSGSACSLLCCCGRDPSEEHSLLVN
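Tet-induced TRPML1-DL cells, 1,500 per well, cultured overnight, were loaded with a no-wash Ca2+ dye for 45–90 min. Calcium fluorescence was recorded on the FDSS for 110 s after compound addition, before the EC80 agonist (4 uM 54-4) was added.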
Menin MLL FP FL = menin-MLL binding inhibition, fluorescein peptide; Fluorescence polarization, fluorescein-MLL peptide displacement from menin; FP activity change, % at 61.4 µM; 290,000 tested, under 10 active; inconclusive = falling polarisation curve, or a change in total fluorescence; inactive = total fluorescence flat and polarisation flat or rising; no compound was filed as active; the % refers to the polarisation; negative = inhibition;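 note: % of control where 0% means no effect; inhibitors lower the polarisation; unlabelled MLL peptide was the positive control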
TRPML1 inh = blocks the human TRPML1 channel. Q9GZU1. TRPML1-inducible cells, Ca2+ dye fluorescence, FDSS; stronger effect = lower value; inhibition of EC80 agonist-evoked calcium signal. activity change, negative = inhibition, % (test concentration not listed). 0.02% of 390,000 active. AID 624415; in the data active means activity change below about -50%; inconclusive means about -30% to -50%; inactive means above about -30%;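 note: stimulus is agonist 54-4 at its EC80 concentration; % is set by controls: 0 for no effect and ±100 for the full control effect; compound concentration not given in the record; the text of the record puts the active cut at -80%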
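Tet-induced TRPML1-DL cells loaded with Ca8 no-wash calcium dye were read kinetically on FDSS. Compound addition was followed by EC80 agonist 54-4 (4 uM final); inhibition was read over 110 s.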
Starred values were filed as active, the others as inactive; ? = inconclusive; . = not tested or not shown; [ ] = dose if it differs, or a comment. Random draw from the library. Share with any hit: about 2.1%.

SMILES | gsp agonist | ClpP mod | gsp antag | TRPML1 ag | Menin MLL FP FL | TRPML1 inh
O=C(NCc1ccccc1F)c1cccc(S(=O)(=O)N2CCCCCC2)c1 | -4% | -2.2% | 6% | 1.3 | . | 0
COc1ccc(C(=O)c2ccc(Cl)c([N+](=O)[O-])c2)cc1 | 24% | -4.5% | -8% | 4.9 | 7.9 | 13
O=C(NCc1ccc(F)cc1)c1cc2ccccn2n1 | -90%[inhibitor] | 4.5% | 2% | 0.5 | 1.7 | -1
Cc1ccc(NC(=O)C2CCC(CNS(=O)(=O)c3cccc4nsnc34)CC2)c(C)c1 (stereo not drawn) | . | -14% | . | -0.8 | . | -9
COc1ccc2c(CCNC(=O)Nc3ccccc3)c[nH]c2c1 | -3%[15.4 µM] | . | -1% | 0.7 | 1.3 | 14
COCCCN1C(=O)C(CC(=O)NCc2ccco2)CC(C(=O)N2CCOCC2)=C1C (stereo not drawn) | ? | -1.1% | . | -0.3 | . | -2
Cc1ccc(NC(=O)CCC(=O)N/N=C/c2ccccc2O)cc1 | -20% | -9.3% | 9% | 1.2 | -10 | -6
CCOc1cc(/C=N/NC(=O)C2CCCC2)ccc1OC(C)C | -16% | -6.7% | 0% | -0.3 | . | 29
Cc1nn(-c2ccccc2)c(N)c1N=O | 1% | -0.1% | -13% | -0.5 | 5.4 | 3
COc1ccc(-c2oc3cccnc3c2/C=C/c2ccc(OC)c(OC)c2)cc1 | ? | 3.9% | 11% | -0.5 | 3.6 | 3
O=C(NCCO)NC(=S)c1ccccc1 | 27% | 0.8% | 6% | 0.0 | -0.5 | -16
O=C(CCCc1ccccc1)NCc1ccccc1Cl | -49%[inhibitor] | . | 7% | 0.6 | 1.4 | -9
O=C1/C(=C/c2ccccc2)CN(C(=O)CCN2CCOCC2)C/C1=C\c1ccccc1 | ? | -1.7% | -22% | 3.4 | . | 0
CCOc1cc(N2CCOCC2)c(OCC)cc1NC(=O)c1ccc(-n2ccnc2)c([N+](=O)[O-])c1 | -34% | . | -18% | 2.0 | 0.8 | 58
CC(C)(Cc1ccc(O)cc1)NC(=O)SCc1ccccc1 | 4%[15.4 µM] | -0.4% | 10% | 0.0 | -7.2 | -11
CCC1c2ccc(C)n2CCN1C(=O)Nc1ccccc1C(=O)OC (stereo not drawn) | -1% | 35µM* | -4% | 1.3 | 4.6 | -13
O=C(Cn1c(=O)n(-c2ccccc2)c(=O)c2sc3ccccc3c21)N1CCCC1 | . | 3.6% | . | -0.7 | . | -11
Cc1ccc(S(=O)(=O)c2cc3c(=O)n4cccc(C)c4nc3n(Cc3ccncc3)c2=N)cc1 | 4% | -12% | -3% | -0.4 | . | 41
CN(C(=O)c1ccno1)c1nnc(-c2ccccn2)s1 | -2% | -23% | 6% | -0.3 | 0.7 | -3
CCC(C(=O)NCCCN1CCCC1=O)n1c2ccccc2c2nc(=O)cc(C)n21 (stereo not drawn) | 6% | 3.9% | 5% | -0.8 | . | 1
O=C(Nc1ccc(N2CCOCC2)cc1)c1cc(-c2ccncc2)nc2ccccc12 | -51%[inhibitor] | -0.6% | -33% | 0.5 | 0.3 | 23
O=C(CSc1nc2ccccc2s1)Nc1cc(C(=O)O)cc(C(=O)O)c1 | 1% | -4.0% | 13% | 1.6 | -6.8 | 8
Cc1nnc(SCC(=O)N2CCOCC2)[nH]c1=O | 0%[15.4 µM] | 0.2% | 10% | -0.1 | 5.5 | 14
O=C(CSc1ccc2ccccc2c1)NCc1cccs1 | 17%[15.4 µM] | -0.9% | -3% | -0.2 | 2.7 | -8
C=CCNc1nc2ccccc2c(=O)[nH]1 | ? | . | 5% | 1.1 | -2.2 | 31

Further entries:
SMILES | gsp agonist | ClpP mod | gsp antag | TRPML1 ag | Menin MLL FP FL | TRPML1 inh
Cn1cc(CC(=O)N2CCN(c3ccc(Cl)cc3)CC2)c2ccccc21 | -38%[inhibitor] | -2.9% | -10% | 2.8 | 12 | -17
CCC(=O)n1nc(-c2ccc(Cl)cc2)nc1SC | 14% | 0.3% | 3% | -0.8 | 0.8 | 31
NC(=O)C1CCN(C(=O)CNC(=O)c2ccccc2)CC1 | 1%[15.4 µM] | -1.4% | 10% | 0.0 | -1.1 | -10
O=C1[C@@H]2CSCN2C(=O)CN1Cc1ccccc1F | ? | . | -4% | 1.6 | 2.4 | 5
CN(CC(=O)O)S(=O)(=O)c1ccc(F)cc1 | 1% | 1.2% | 12% | -0.3 | 0.0 | 0
CCCN1C2=C(C(=O)CC(C)(C)C2)C(c2ccc(F)cc2)C2=C1c1ccccc1C2=O (stereo not drawn) | -1% | 0.5% | -19% | 2.9 | 1.1 | 27
Cc1cccc(C)c1NC(=O)C(c1ccccc1)N1CCN(C(=O)c2ccco2)CC1 (stereo not drawn) | -38%[inhibitor] | -0.9% | -9% | -0.5 | 5.3 | -1
Cc1cccc(C)c1NC(=O)c1cccc(N2C(=O)C3CCC(C)CC3C2=O)c1 (stereo not drawn) | -3% | -0.1% | -13% | 0.2 | -1.1 | -1
O=C1CCc2cc(S(=O)(=O)Nc3ccccc3F)ccc2N1 | ? | 0.6% | 6% | 0.0 | . | -9
Cc1cccc(Nc2nnc(SCC(=O)NC(=O)CN3CCCC3=O)s2)c1 | -1% | 0.4% | 12% | 2.8 | . | 42
O=C(CNC(=O)c1ccco1)Nc1ccc2c(c1)OCCO2 | 6%[15.4 µM] | . | -13% | 2.4 | . | 2
COc1ccc(NS(=O)(=O)c2ccc(-c3cnc(C4CC4)o3)cc2)cc1Cl | . | -1.6% | . | 0.1 | . | 5
O=C(O)CC1S/C(=N/N=C/c2ccccn2)NC1=O (stereo not drawn) | -20% | 0.3% | 6% | 0.0 | 1.6 | -3
CC(=O)N1CC(c2ccccc2)C(c2ccc(Cl)cc2)=N1 (stereo not drawn) | ? | ? | -7% | -0.1 | 5.0 | 27
O=C(NCc1ccc(Cl)cc1)c1ccc2c(c1)nnn2C1CCCC1 | . | -1.3% | . | 2.0 | . | 56
CC(C)OC(=O)CN1C(=O)C(C)(C)Oc2ccc(C(=O)NC3CC3)cc21 | 4% | -0.3% | -15% | -0.8 | -0.2 | 12
CC(=O)c1cccc(S(=O)(=O)Nc2ccccc2N2CCOCC2)c1 | 28% | -0.4% | 3% | -0.3 | . | -8
CCOC(=O)C1=C(C)Nc2nc3ccccc3n2C1c1ccncc1 (stereo not drawn) | -26% | 0.5% | -2% | 0.6 | 4.6 | -5
Cc1cc(C)cc(NC(=O)/C=C/c2ccc([N+](=O)[O-])s2)c1 | -10% | -3.4% | 5% | 0.0 | ? | 0
COc1ccc(CCNC(=O)CN(Cc2ccc(Cl)cc2)S(C)(=O)=O)cc1 | 4% | 0.3% | -4% | -0.2 | -2.3 | 0
Cc1nc(-c2ccc(Cl)cc2)sc1C1(C)CC(c2ccc(Cl)cc2)=NO1 (stereo not drawn) | . | ? | 6% | -0.6 | . | 43
CC(C)(C)C(=O)OCc1ccc(C2=CC(=O)CC(C)(C)C2=O)cc1 | -3% | 0.9% | . | -0.5 | . | 18
CCCn1cc(S(=O)(=O)c2cc(C)ccc2C)c(=O)c2cc(F)c(N3CCN(CC)CC3)cc21 | . | 4.4% | . | 0.0 | . | 15
O=C(Nc1nsc(-c2ccccc2)n1)c1cccs1 | 18% | -4.3% | -13% | -0.1 | -0.2 | -7
CC(C)NC(=O)COC(=O)C1CSC2(c3ccc(Br)cc3)CCC(=O)N12 (stereo not drawn) | 6%[15.4 µM] | . | . | 0.2 | -2.4 | 12

5 records drawn at random from the list so far, as already listed:
SMILES | gsp agonist | ClpP mod | gsp antag | TRPML1 ag | Menin MLL FP FL | TRPML1 inh
Cc1cc(C)cc(NC(=O)/C=C/c2ccc([N+](=O)[O-])s2)c1 | -10% | -3.4% | 5% | 0.0 | ? | 0
O=C(NCc1ccc(Cl)cc1)c1ccc2c(c1)nnn2C1CCCC1 | . | -1.3% | . | 2.0 | . | 56
O=C(O)CC1S/C(=N/N=C/c2ccccn2)NC1=O (stereo not drawn) | -20% | 0.3% | 6% | 0.0 | 1.6 | -3
CCCn1cc(S(=O)(=O)c2cc(C)ccc2C)c(=O)c2cc(F)c(N3CCN(CC)CC3)cc21 | . | 4.4% | . | 0.0 | . | 15
CCOC(=O)C1=C(C)Nc2nc3ccccc3n2C1c1ccncc1 (stereo not drawn) | -26% | 0.5% | -2% | 0.6 | 4.6 | -5

(next part)
SMILES | gsp agonist | ClpP mod | gsp antag | TRPML1 ag | Menin MLL FP FL | TRPML1 inh
Cc1cc(/C=C(\C#N)C(=O)NC2CCCCCC2)c(C)n1C | -17% | 3.8% | -1% | 2.1 | ? | 3
COc1ccc(OC)c(CCNC(=O)CCc2nnc3ccc(N4CCCC4)nn23)c1 | ? | -0.2% | -6% | 1.3 | . | 13
COC(=O)c1ccc(CSc2nc(-c3ccco3)cc(C(F)(F)F)n2)o1 | 1% | -11% | -3% | 2.5 | 5.3 | 29
c1ccc2[nH]cnc2c1 | . | -1.8% | -4% | 0.7 | . | 6
Cc1ccc(-n2nc3c(=O)n(C(C)C(=O)NCCc4cccs4)nc(C)c3c2C)cc1 (stereo not drawn) | -5% | -1.8% | -33% | -0.5 | 3.0 | -9
[O-]/[N+](=C\c1ccccc1)[C@@H]1CCCC[C@@H]1/[N+]([O-])=C/c1ccccc1 | -10% | -1.2% | 19% | -0.6 | 0.7 | 6
O=C(O)C1CCN(c2ccc(S(=O)(=O)N3CCOCC3)cc2[N+](=O)[O-])CC1 | 36%[15.4 µM] | . | 2% | -0.3 | 4.9 | 5
CN(CC(=O)Nc1ccc(F)cc1)CC(=O)N1CCc2ccccc21 | 0%[15.4 µM] | . | -7% | -1.0 | . | 5
CCOc1ccc(OCC)c(NC(=O)CSCC(=O)O)c1 | 13% | -1.5% | 18% | 0.2 | 6.5 | -4
CC(C)C[C@@H](CN1CCC[C@@H]1CN1C(=O)C(=O)NC[C@@H]1Cc1ccccc1)N1C[C@H](Cc2ccc(O)cc2)N(CCc2ccccc2)C(=O)C1=O | . | 0.2% | -15% | -1.0 | . | -6
CC1CCc2c(sc3nc(CN4CCN(S(=O)(=O)c5ccccc5[N+](=O)[O-])CC4)[nH]c(=O)c23)C1 (stereo not drawn) | 10%[15.4 µM] | -1.8% | -19% | 0.1 | -3.7 | -1
O=C(Nc1ccccc1[N+](=O)[O-])C1C(c2ccccc2)=C1c1ccccc1 | -8% | 1.0% | -3% | 2.2 | 2.0 | -9
NS(=O)(=O)c1ccc(NS(=O)(=O)/C=C/c2ccccc2)cc1 | -30% | -1.1% | -9% | 0.5 | 1.4 | 1
O=C(CNC(=S)N(CCCN1CCOCC1)Cc1cccs1)NCCN1CCOCC1 | 5%[15.4 µM] | -2.4% | 6% | -0.7 | 1.1 | 11
CSCC[C@H](NC(=O)OC(C)(C)C)c1nnc(SCc2ccc(F)cc2)o1 | -1% | 2.4% | 6% | 0.9 | 2.8 | 10

High-throughput results (PubChem BioAssay)
